GAA glycogen mod: qHTS Assay for Inhibitors and Activators of Human alpha-Glucosidase Cleavage of Glycogen | recombinant GAA, glycogen substrate, Amplex Red glucose oxidase fluorescence | Potency, µM (top dose mostly 76.4 µM), without a hit: at the highest dose activity change, negative = inhibition, actives largely listed as inhibitors | Lysosomal alpha-glucosidase (Homo sapiens), P10253 | AID 2100, 2009 | hit rate 0.38% among 300,000;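 also: 0% = full enzyme reaction and -100% = no-enzyme basal signal; the screen sought inhibitors and activators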
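Recombinant human enzyme (4 nM); glycogen substrate; 37 C, 40 min, pH 5.0. Readout: coupled glucose oxidase/Amplex Red fluorescence.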
RGS12 GoLoco inh: qHTS Assay for Inhibitors of RGS12 GoLoco Motif Activity (Red Fluorophore) | Guanine nucleotide-binding protein G(i) subunit alpha-1 (Homo sapiens), P63096 | Gai1:RGS12 GoLoco peptide FP, rhodamine, 10 min | Potency, µM (top dose mostly 61.6 µM), inactives show at the highest dose activity, negative = inhibition, usual class: inhibitors | hit rate 0.44% among 230,000 | AID 880, 2007; active = well fitted inhibition curve with a large enough effect, not every such curve was filed as active; inactive = no such curve, though single readings can be large or run the other way; also: nearly all actives have a fitted effect of over 30% in size; many of its hits are not listed in these tables
GAA spleen mod: qHTS Assay for Inhibitors and Activators of Human alpha-Glucosidase From Spleen Homogenate. hit rate 0.006% among 240,000. Potency, µM (series often up to 79.9 µM), for inactives: at the highest dose activity change, negative = inhibition, most hits filed as inhibitors. human spleen homogenate, 4-MU-alpha-glucoside fluorescence. Lysosomal alpha-glucosidase (Homo sapiens), P10253;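 also: 0% = enzyme with vehicle and -100% = no enzyme basal signal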
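AC50 values come from Hill-equation fits of concentration-response data, normalized to no-enzyme and full-activity controls. Enzyme source: 1 ug human spleen homogenate; 1 mM fluorogenic 4-MU glucoside, pH 5.0 citrate buffer, 37 C, 40 min.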
RECQ1 inh: qHTS Assay for Inhibitors of RecQ-Like Dna Helicase 1 (RECQ1). RECQ1 DNA unwinding, red fluorescence kinetic read. Potency, µM (titrated, usually from 57.3 µM), for inactives: top-dose activity, negative = inhibition, most hits filed as inhibitors. hit rate 0.54% among 240,000. AID 2549, 2010;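 also: plate controls were vehicle for no effect and no enzyme for full effect; nearly all actives have a fitted effect of over 30% in size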
Target sequence (P46063 whole entry, looked up): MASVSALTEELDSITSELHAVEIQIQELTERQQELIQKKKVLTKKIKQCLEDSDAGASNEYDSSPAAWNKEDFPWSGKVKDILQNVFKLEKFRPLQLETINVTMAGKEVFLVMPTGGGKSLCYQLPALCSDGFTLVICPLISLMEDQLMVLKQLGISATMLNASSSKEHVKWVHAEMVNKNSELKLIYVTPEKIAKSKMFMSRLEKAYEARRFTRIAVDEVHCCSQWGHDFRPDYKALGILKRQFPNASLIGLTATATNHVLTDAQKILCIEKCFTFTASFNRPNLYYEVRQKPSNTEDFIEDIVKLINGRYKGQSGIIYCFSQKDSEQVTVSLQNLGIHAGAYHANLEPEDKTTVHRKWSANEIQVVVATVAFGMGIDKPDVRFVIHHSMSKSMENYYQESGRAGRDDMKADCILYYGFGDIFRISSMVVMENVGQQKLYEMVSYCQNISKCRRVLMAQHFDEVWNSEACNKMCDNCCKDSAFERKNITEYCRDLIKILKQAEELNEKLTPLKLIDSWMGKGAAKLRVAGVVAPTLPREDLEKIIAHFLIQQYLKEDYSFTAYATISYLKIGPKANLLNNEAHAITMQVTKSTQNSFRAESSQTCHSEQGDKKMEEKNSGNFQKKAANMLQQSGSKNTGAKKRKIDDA
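RECQ1T1 50 nM; forked duplex (20 bp + 30-nt ss tails) 200 nM, ATP 2 mM final; pH 8.0, 2 mM MgCl2, 2.5 ug/ml poly(dI-dC); 15 min compound preincubation; discontinuous kinetic read over 2 h at RT.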
TRb SRC2 PPI: qHTS for Inhibitors of the Interaction of Thyroid Hormone Receptor and Steroid Receptor Coregulator 2; TRbeta-SRC2 peptide binding, fluorescence polarization; receptor liganded with 1 µM T3; Potency, µM (highest dose often 106 µM), inactives show top-dose activity change, negative = inhibition, actives largely listed as inhibitors; AID 1469, 2008; hit rate 0.065% among 280,000; Thyroid hormone receptor beta (Homo sapiens), P10828;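 also: plate controls were bound peptide for no effect and peptide without receptor for full effect; nearly all actives have a fitted effect of over 50% in size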
Target sequence (P10828 whole entry, looked up): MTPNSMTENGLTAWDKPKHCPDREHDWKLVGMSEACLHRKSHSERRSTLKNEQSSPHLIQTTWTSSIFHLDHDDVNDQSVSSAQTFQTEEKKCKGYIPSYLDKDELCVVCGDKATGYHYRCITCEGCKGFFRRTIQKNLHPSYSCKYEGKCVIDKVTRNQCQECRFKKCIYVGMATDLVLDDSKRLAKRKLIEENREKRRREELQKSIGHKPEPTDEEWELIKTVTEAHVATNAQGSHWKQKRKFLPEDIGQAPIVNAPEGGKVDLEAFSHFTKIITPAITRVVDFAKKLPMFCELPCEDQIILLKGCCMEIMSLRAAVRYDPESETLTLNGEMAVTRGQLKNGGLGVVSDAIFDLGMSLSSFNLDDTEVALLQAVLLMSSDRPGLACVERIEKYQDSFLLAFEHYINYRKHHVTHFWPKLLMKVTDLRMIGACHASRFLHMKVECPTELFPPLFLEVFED
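Binding of a 20-amino-acid Texas Red SRC2 peptide (20 nM) to TRb ligand-binding domain (0.6 uM) with agonist T3 at 1 uM was followed by fluorescence polarization after a 5 hr room-temperature incubation.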
TR SRC2 fluor cs: Total Fluorescence Counterscreen for Inhibitors of the Interaction of Thyroid Hormone Receptor and Steroid Receptor Coregulator 2; TRb/SRC2 Texas Red total fluorescence interference; Potency, µM (top dose mostly 106 µM), without a hit: at the highest dose fluorescence change, negative = quenching; hit rate 0.29% among 280,000; AID 1479, 2009; active = well fitted curve in either direction with a large enough effect; inconclusive = small, poorly fitted or top-dose-only effect
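Human TRβ ligand-binding domain (0.6 uM) and Texas Red SRC2 peptide (20 nM) in Tris buffer with 1 uM T3 and 5% DMSO were incubated with pinned compound for 5 hr at ambient temperature. Total fluorescence was computed as S + 2P (555/632 nm).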
GAA inh: qHTS Assay for Inhibitors of Human alpha-Glucosidase as a Potential Chaperone Treatment of Pompe Disease; Lysosomal alpha-glucosidase (Homo sapiens), P10253; purified human GAA, 4-MU-alpha-glucoside fluorescence; Potency, µM (top dose mostly 76.9 µM), for the others: at the top dose activity change, negative = inhibition, most hits filed as inhibitors; hit rate 0.005% among 200,000; AID 1466, 2008;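 also: plate controls were uninhibited enzyme wells for no effect and no-enzyme background for full effect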
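Read-out is 4-methylumbelliferone fluorescence (Ex 365/Em 440 nm) after NaOH/glycine stop at pH 10. Enzyme 4 nM, substrate 400 uM, pH 5.0 citrate buffer, 20 min room temperature; AC50 from Hill-equation concentration-response.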
Numbers without * were called inactive; i = inactive; ? = inconclusive; . = not tested or not shown; & = joins results of further samples; [ ] = remark or other dose. Unless noted, calls follow the shape of the dose curve; as a rule, active = well fitted curve in the direction sought with a large enough effect; inconclusive = small, poorly fitted or top-dose-only effect, or another doubt; inactive = no such curve, though single readings can be large; an effect the other way counts as inactive or inconclusive. Unless noted, % is scaled to controls: 0 for no effect and ±100 for the full control effect; potency is read from the fitted curve at half-maximal effect. This is a subset; count on the stated rates, not on these rows.

SMILES | GAA glycogen mod | RGS12 GoLoco inh | GAA spleen mod | RECQ1 inh | TRb SRC2 PPI | TR SRC2 fluor cs | GAA inh
O=[N+]([O-])c1ccc(/C=N/n2c(-c3ccccc3)n[nH]c2=S)cc1 | 1%[76.3 µM] | . | . | . | . | . | .
O=C(/C=C/c1ccc(Cl)cc1)NCc1ccco1 | 3% | 7% | 2% | -13% | 3% | 1% | -8%
CCCCOCCCNC(=O)c1ccc([N+](=O)[O-])c(C)c1 | 5% | 7% | -4% | 0% | -5% | 0% | 1%
COC(=O)/C=C1\SC(=Nc2ccc(Cl)c(Cl)c2)NC1=O | 7% | 2% | 2% | -20% | -2% | -2% | -7%
COC(=O)C1C(O)=C(C=Nc2ccccc2)C(=O)CC1(C)C (stereo not drawn) | 5% | -2% | . | 5% | 4% | -2% | -1%
CCOC(=O)CCC(NC(=O)CCC(=O)NC(CCC(=O)OCC)C(=O)OCC)C(=O)OCC (stereo not drawn) | 7% | 3% | -9% | -16% | 6% | 0% | -3%
CN1C(=S)N(c2ccccc2)C(=O)/C1=C/c1ccco1 | -4% | 24% | 5% | i | 0% | 0% | -9%
Nc1ccc(S(=O)(=O)Nc2cnc3ccccc3n2)cc1 | 9% | 3%[14.2 µM] | 3% | -4% | -4% | -1% | -3%
O=C(O)c1ccccc1C(=O)Nc1nc(-c2ccccc2)cs1 | 1%[76.3 µM] | . | . | . | . | . | .
Cc1cccc(NC(=S)NCc2ccc3c(c2)OCO3)c1C | -4% | 13% | 10% | -1% | -1% | 0% | ?
O=C(Nc1nc(-c2ccncc2)cs1)c1ccco1 | -9% | 36%[activator] | 5% | -5% | 5% | -2% | 1%
O=C(CSc1ccc(Cl)cc1)Nc1ccc(NC(=O)c2ccco2)cc1 | 0% | 9% | 4% | 5% | 10% | 0% | 1%
Cc1cccc(C(=O)N[C@H](C(=O)OCc2cc(=O)n3c(n2)sc2ccccc23)C(C)C)c1 | 4% | 56%[activator] | 3% | -4% | 0% | -9% | -5%
O=C(O)COCC(=O)Nc1ccc(OCCc2ccccc2)cc1 | 2%[76.3 µM] | . | . | . | . | . | .
O=C(O)c1ccc2nc(-c3cc4cccc(O)c4oc3=O)[nH]c2c1 | . | . | . | . | -2% | -25% | .
CC1CCN(C(=O)CSc2nnc(-c3ccc(S(=O)(=O)N4CCOCC4)cc3)n2C)CC1 | 0% | -3% | 1% | 0% | -4% | -3% | 1%
CN(C)c1ccc(/C=N/n2c(-c3cccnc3)n[nH]c2=S)cc1 | 3% | 9% | 0% | 3% | -12% | -2% | -3%
COc1ccccc1/C=C/C=N/n1c(-c2ccncc2)n[nH]c1=S | 7% | 15% | 3% | -4% | -4% | -1% | -14%
O=C(OCc1cc(=O)n2c(n1)sc1ccccc12)c1ccc(O)cc1 | 9% | 15% | -5% | -20% | -5% | -13% | 3%
O=c1ccc2cc3c([nH]c4ccc(Br)cc43)oc-2c1O | -16% | 121%[activator] | 0% | ? | 0% | -13% | -7%
C[C@H](NC(=O)c1nc[nH]c1C(=O)N1CCN(c2ccccc2)CC1)C(=O)OCc1ccccc1 | -11%[76.3 µM] | . | . | . | . | . | .
COc1ccc(C(=O)Nc2ccc(C(=O)Nc3cccnc3)cc2)cc1 | 2%[76.3 µM] | . | . | . | . | . | .
O=C(/C=C/c1ccc(O)c(O)c1)O[C@@H]1C[C@@](O)(C(=O)O)C[C@H](O)[C@@H]1O | . | -11% | -2% | 3% | -2% | -1% | .
COC(=O)/C=C1\S/C(=N/N=C/c2ccco2)NC1=O | -3% | 7% | -8% | -15% | 2% | -9% | -2%
CN(Cc1ccccc1)C(=O)CCS(=O)(=O)c1cc2c(cc1Cl)NC(=O)CO2 | -1%[76.3 µM] | . | . | . | . | . | .
O=C(c1cnccn1)N1CCc2ccccc21 | 0% | 24% | 2% | -21% | -14% | 0% | -1%
Cc1ccc(/C=N/n2c(-c3ccncc3)n[nH]c2=S)s1 | -6% | -4% | -1% | i | -1% | -4% | .
CC(=O)CCc1c(C)nc2ccc(C(=O)O)cc2c1Cl | 14% | -3% | -1% | 0% | 2% | -21% | -15%
CCN(CC)CC#CCOC(=O)C(O)(c1ccccc1)C1CCCCC1 (stereo not drawn) | -3% | 7%&8% | -8%&9% | ? | -5%&3% | -4%&2% | 0%[15.4 µM]
O=C(CCSc1nc(-c2ccco2)cc(C(F)(F)F)n1)Nc1ccc2c(c1)OCO2 | -14% | 7% | -5% | -11% | 6% | 1% | -4%
O=C1OC(c2ccc(O)cc2)(c2ccc(O)cc2)c2ccccc21 | -3% | 7%&2%&-2%&0% | 2%&-3%&-2% | 1%&-4%&-7% | -5% | -2% | 7%[15.4 µM]
Cc1nn(-c2ccccc2)c(C)c1/C=N/n1c(-c2ccncc2)n[nH]c1=S | -11% | 6% | -2% | i | 5% | -4% | 5%
COc1cc(CNCc2ccc3c(c2)OCO3)c([N+](=O)[O-])cc1OC | 4%[76.3 µM] | . | . | . | . | . | .
Cc1ccc2nc(-c3ccccc3Cl)cc(C(=O)Nc3cc(C)on3)c2c1 | -10% | -2% | -7% | -18% | 7% | -4% | -9%
O=c1c2c(nc3nc(NCc4ccccc4Cl)[nH]n13)CCC2 | 0% | 4% | 7% | -3% | 5% | 1% | 3%
O=C(Nc1cccc(Br)c1)c1ccc(Cl)c(S(=O)(=O)N2CCOCC2)c1 | 0% | 6% | 1% | 3% | 17% | 0% | -2%
O=C(CN(Cc1ccccc1)C(=O)c1ccco1)NCc1ccc(F)cc1 | 2% | 5% | -6% | 0% | -13% | 0% | -8%
CN1CCN(c2ccc(C(=O)NC3CCCCC3)cc2[N+](=O)[O-])CC1 | -8% | -7% | 6% | i | -7% | -2% | 0%
CC(=O)O[C@]1(C(C)=O)CC[C@H]2[C@@H]3C=C(C)C4=CC(=O)CC[C@]4(C)[C@H]3CC[C@@]21C | -9%&2% | 8%&11% | -5%&8% | -6%&-9% | -2%&3% | -1%&-1% | -3%&0%[15.4 µM]
CCc1nc(NCC2CCCO2)c(C#N)c2c1COC(C)(C)C2 (stereo not drawn) | 0% | -7% | -10% | 6% | 10% | 1% | -2%
Cc1nnc(NC(=O)CSc2ccc(-c3ccccn3)nn2)s1 | -11% | 17% | 1% | -10% | -13% | 1% | 2%
O=C(c1ccc2c(c1)OCO2)N1CCN=C1SCc1ccccc1 | 5% | -3% | 2% | 1% | -11% | -1% | -4%
CC(=O)O[C@]1(C(C)=O)CCC2C3C=C(C)C4=CC(=O)CC[C@]4(C)C3CC[C@@]21C (stereo partly drawn) | -5% | . | . | . | . | . | .
COc1ccc(C2/C(=C(/O)c3ccccc3)C(=O)C(=O)N2C)cc1OC (stereo not drawn) | -5%[76.3 µM] | . | . | . | . | . | .
COC(=O)/C=C1/S/C(=N/N=C/c2ccco2)NC1=O | -14% | 1% | 1% | -9% | 3% | -7% | .
Cc1cccc(-n2c(SCC(N)=O)nnc2-c2ccco2)c1 | -10%[76.3 µM] | . | . | . | . | . | .
CCOc1ccccc1-c1nc(-c2ccc(NC(=O)c3ccc(Br)o3)cc2)no1 | -1% | 19% | -8% | -9% | 9% | 1% | 0%
O=C(Nc1nnc(-c2ccco2)o1)c1cccc(Cl)c1 | -7% | -1% | 2% | -6% | 4% | -2% | -2%
COC(=O)CSc1nc(C)cc(C)n1 | 7% | 27% | . | -10% | 2% | 1% | -6%
Cc1ccc(NCC(=O)N/N=C/c2cc(O)ccc2[N+](=O)[O-])cc1 | -12% | -11% | -6% | -21% | -3% | -4% | 5%
CCCCn1c(/C=C/c2ccco2)nc2ccccc21 | ? | 184%[activator] | 1% | 0% | -5% | 11% | -1%
COCCn1c(-c2ccccc2)nc2oc3cc(OC)ccc3c(=O)c2c1=O | -2% | 4% | 0% | 2% | -1% | -1% | -6%
Cc1[nH]nc2c1C(c1cccnc1)N(c1ccc(Br)cc1)C2=O (stereo not drawn) | -1% | -8% | 8% | 4% | ? | 1% | 0%
N#Cc1ccc(CSc2nnc(NC(=O)C3CC(=O)N(c4ccc5c(c4)OCCO5)C3)s2)cc1 (stereo not drawn) | -2% | 25% | 2% | 28µM* | -5% | 3% | -3%
CCN(CCCNC(=O)CC1Oc2ccc(C)cc2NC1=O)Cc1ccccc1 (stereo not drawn) | 3% | -4% | 3% | 5% | -6% | -2% | -4%
c1ccc(-c2noc(-c3ccncc3)n2)nc1 | 8% | 2% | 2% | 7% | 1% | -1% | 2%
C=CCN(c1ccccc1)S(=O)(=O)c1cc2c(cc1C)NC(=O)CO2 | 10%[76.3 µM] | . | . | . | . | . | .
O=C(O)CCc1ccc(-c2ccc(Cl)cc2)n1NC(=O)c1ccc(O)cc1 | 20% | -1% | 6% | 13% | -2% | -4% | 12%
CC(=O)Nc1cccc(OCc2cnc(Cl)s2)c1 | -1% | 6% | -17% | i | -2% | 0% | 7%
Cc1cc(C(C)(C)C)c(O)c(C(C)(C)C)c1 | -4% | -3%&4%&0% | -9%&1%&-1% | -11%&7%&-1% | 4%[201 µM] | 0%[201 µM] | 3%
COCc1cc(C)n(CC(=O)N/N=C/c2ccc(-c3ccc(Cl)c(C(=O)O)c3)o2)c(=O)c1C#N | 8% | -4% | 5% | -8% | -2% | -3% | 3%

Full records as entered above. Screens in order: GAA glycogen mod, RGS12 GoLoco inh, GAA spleen mod, RECQ1 inh, TRb SRC2 PPI, TR SRC2 fluor cs, GAA inh
Record of CC(=O)Nc1cccc(OCc2cnc(Cl)s2)c1 : -1%, 6%, -17%, i, -2%, 0%, 7%
Record of COC(=O)/C=C1\S/C(=N/N=C/c2ccco2)NC1=O : -3%, 7%, -8%, -15%, 2%, -9%, -2%
Record of O=[N+]([O-])c1ccc(/C=N/n2c(-c3ccccc3)n[nH]c2=S)cc1 : 1%[76.3 µM], ., ., ., ., ., .

Screens as filed in PubChem BioAssay.
